Sa helicase inh – blocks Staphylococcus aureus DNA helicase | purified S. aureus helicase, fluorescence unwinding assay; about half of the hits fall short of the stated cut | inhibition, %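 (tested at about 80 µM)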 | hit rate 0.05% among 120,000 | AID 485395;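 active means both duplicates at 50% or more, or one of them with a favoured structure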;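 further: 0% = mean of negative control wells and 100% = mean of positive control wells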
MgrA DNA FP – alters Staphylococcus aureus MgrA binding to DNA | AID 602314 | hit rate 0.13% among 84,000 | inhibition, %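 (about 10 µg/mL by stock and volumes)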 | fluorescence polarization;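 active means above 50% in either of two replicates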;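 further: 0% = protein plus DNA without compound and 100% = DNA alone without protein; higher means less MgrA bound to DNA so lower polarization; one replicate is shown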
An asterisk follows results filed as active; · = not tested or not shown; & = joins results of further samples. This is a subset; count on the stated rates, not on these rows.

Second line of a record: Sa helicase inh, MgrA DNA FP
CSc1sc(C(=O)O)c2c1S(=O)(=O)N(C)c1ccccc1-2
    ·, -1.1
CSc1n[nH]c(-c2ccccc2)c1C#N
    ·, 0.3
CC(=O)NCCOc1cccc2ccccc12
    12, 1.1
N#C/C(=C1\CCCN1)c1nc(-c2ccccc2)cs1
    -32, -1.2
COC(=O)c1cccc(NC(=O)COC(=O)c2ccc(N3C(=O)CCC3=O)cc2)c1
    5, ·
CC(=O)Nc1ccc(I)cc1
    ·, -1.1
COc1ccc(C2=NN(C(=O)c3cccc([N+](=O)[O-])c3)C(c3cccc([N+](=O)[O-])c3)C2)cc1 (centres undefined)
    ·, -1.7
CCCc1nc2sc3c(c2c(=O)n1N)CCCC3
    -2, 18
O=C(N/N=C/c1cccc(O)c1)c1ccc(-n2cnnn2)cc1
    -5, ·
O=C1c2cccc3cccc(c23)N1S(=O)(=O)c1ccc(Br)cc1
    9, 10
CCOC(=O)C1CCCN(C(=O)c2ccc(F)cc2)C1 (centres undefined)
    7, -3.1
O=C1CSC(/C=C/c2ccccc2)N1c1cc(Cl)ccc1Cl (centres undefined)
    20, 6.0
C=CCNc1nc(N(c2ccccc2)c2ccccc2)nc(-n2ccnc2)n1
    7, -0.7
CCOC(=O)Nc1sccc1C(N)=O
    22, -0.5
O=C(COC(=O)c1cccnc1Cl)Nc1ccccc1C(F)(F)F
    4, 1.3
CC(=O)N1C(C(=O)NCc2ccc(C)cc2)CSC12CCN(C)CC2 (centres undefined)
    -13, 0.9
CC1C(=O)CCC2C(C)(COc3ccc4ccc(=O)oc4c3)CCCC12C (centres undefined)
    2, 0.1
COc1ccc2nc(NC(=O)CNS(=O)(=O)c3cccs3)sc2c1
    16, -0.9
N#Cc1c(-c2ccc(Cl)cc2)c2c([nH]c1=O)-c1ccccc1OC2
    ·, 1.5
CCOC(=O)c1c(N=Cc2ccccc2Cl)n[nH]c1C
    ·, -1.1
N/C(=N\OC(=O)c1csnn1)c1ccc(-c2csnn2)cc1
    33, ·
CSc1ncccc1C(=O)Nc1ccccc1N1CCOCC1
    -11, ·
O=C(CCCN1C(=O)c2ccccc2C1=O)Nc1ccc(S(=O)(=O)Nc2ncccn2)cc1
    13, ·
CCn1c(=NC(=O)c2ccc(N(C)C)cc2)sc2cc(C)ccc21
    -23, ·
O=C(COC(=O)c1cccnc1Nc1cccc(C(F)(F)F)c1)NC1CCS(=O)(=O)C1 (centres undefined)
    5, ·
CCOC(=O)Cc1c(C)[nH]n(-c2ccccc2)c1=O
    ·, 1.6
Cc1cc([N+](=O)[O-])ccc1NC(=O)CC1SC(=Nc2ccccc2)N(c2ccccc2)C1=O (centres undefined)
    ·, 0.0
CS(=O)(=O)c1ccc(C(=O)Nc2nccs2)cc1
    18, ·
Cn1c(C(C#N)(CC(=O)N2CCCC2)CC(=O)N2CCCC2)nc2ccccc21
    13, ·
Cc1nc(-n2cccc2)sc1C(=O)NCc1ccc(F)cc1
    19, ·
Cc1ncc(CO)c2cc(C(N)=S)c(=Nc3ccc(NC(=O)c4ccco4)cc3)oc12
    -21, ·
CN1CCC(=NNC(=O)CSCc2ccccc2)CC1
    -34, ·
N#C/C(=C\c1cn(-c2ccccc2)nc1-c1ccc2c(c1)OCCO2)C(=O)Nc1nccs1
    -11, ·
O=C1C2C3C=CC(O3)C2C(=O)N1c1ccc(Cl)c(C(F)(F)F)c1 (centres undefined)
    ·, 3.8
FC(F)(F)c1ccc(N2CCN(Cc3cc(Cl)cc4c3OCOC4)CC2)nc1
    ·, -4.5
C=CCC(NCc1ccccc1)c1ccccc1 (centres undefined)
    6, ·
CC1CCN(Cn2nc(-c3ccc4c(c3)OCO4)oc2=S)CC1
    -7, ·
CCCC(=O)N1CCC(c2c[nH]c3ccccc23)(c2c[nH]c3ccccc23)CC1
    13, 0.5
Cc1ccccc1-c1nc(C2CCCCC2)no1
    -3, ·
Cc1ccc(C(=O)Nc2cccc(O)c2)cc1
    14, 0.7

An excerpt of these results, as labelled records:
> CCn1c(=NC(=O)c2ccc(N(C)C)cc2)sc2cc(C)ccc21
- Sa helicase inh: -23
- MgrA DNA FP: ·

> CCOC(=O)Nc1sccc1C(N)=O
- Sa helicase inh: 22
- MgrA DNA FP: -0.5

> COC(=O)c1cccc(NC(=O)COC(=O)c2ccc(N3C(=O)CCC3=O)cc2)c1
- Sa helicase inh: 5
- MgrA DNA FP: ·

Back to the main list with the four entries that preceded the break.
Second line of a record: Sa helicase inh, MgrA DNA FP
CC1CCN(Cn2nc(-c3ccc4c(c3)OCO4)oc2=S)CC1
    -7, ·
CCCC(=O)N1CCC(c2c[nH]c3ccccc23)(c2c[nH]c3ccccc23)CC1
    13, 0.5
Cc1ccccc1-c1nc(C2CCCCC2)no1
    -3, ·
Cc1ccc(C(=O)Nc2cccc(O)c2)cc1
    14, 0.7
Cc1cccc(C)c1-n1c(-c2cccc(S(=O)(=O)N(C)C)c2)nn(CN2CCOCC2)c1=S
    16, ·
O=C(NCc1sccc1COc1ccc(Cl)cc1)Nc1ccccc1F
    ·, -2.6
CCOC(=O)C1=C(C)N(C)C(=S)N(C)C1c1ccccc1C(F)(F)F (centres undefined)
    8, ·
CCOC(=O)c1cc(C)n(-c2ccc(C(=O)NC3CCCCCC3)cc2)c1C
    0, -1.3
O=c1cc(-c2ccccc2)cc(-c2ccccc2)n1O
    ·, 3.6
CC(C)(C)N1NC2(CCCCC2)NC1=S
    9, 1.5
O=C1C2CC=C(Cl)CC2C(=O)N1CCO (centres undefined)
    -20, ·
CCN(CC)c1ccc(C(F)(F)F)cn1
    4, 7.5
Cc1cc(Br)c(NC(=O)c2ccc(Cl)cc2)c(Br)c1
    ·, -1.9
CC(C)c1ccc(N=Cc2cccs2)cc1
    21, 2.3
Cc1cccc(N2CCN(Cc3csc(C)c3C)CC2C)c1 (centres undefined)
    15, ·
O=C(Nc1ccc([N+](=O)[O-])cc1)C1COc2ccccc2O1 (centres undefined)
    ·, 1.6
CCCNS(=O)(=O)c1cc2c3c(c1)c(C)cc(=O)n3CCC2
    7, -8.2
Cc1ccc(S(=O)(=O)n2c(CN3CCCC(C)C3)nc3ccccc32)cc1 (centres undefined)
    4, -1.9
C=CCn1c(=O)c2ccccc2n2c(SCC(=O)c3ccc[nH]3)nnc12
    11, ·
Cc1cc(CSc2nnc(-c3ccccc3)c3ccccc23)no1
    5, ·
CC1(C)CC(NCc2cccs2)CC(C)(C)N1
    5, -7.0
CCCNC(=O)CC1C(=O)N(Cc2ccccc2)C(C)c2nc3ccccc3n21 (centres undefined)
    28, ·
CCN(CC)C(=O)Cn1cnc2ccccc2c1=O
    2, 2.5
Cc1[nH]ncc1-c1nc(-c2ccc(Cl)cc2)no1
    ·, 0.4
CCOC(=O)/C(C#N)=C/Nc1sccc1C#N
    -124, ·
CCCOc1ccc(C(=O)CCC(=O)O)cc1OCCC
    0, ·
CC(C)(C)C1(C)OC(=O)C(=Cc2ccccc2Cl)C(=O)O1 (centres undefined)
    9, 23
COC(=O)Oc1c(Br)c(=O)oc2ccccc12
    10, -1.7
CCOC(=O)C(C)n1nc(CC)n2c(cc3occc32)c1=O (centres undefined)
    8, ·
COc1ccc(-c2cnc[nH]2)cc1
    ·, -2.0
CC1(C)C2CC[C@](C)(C2)C1NS(=O)(=O)c1ccc(Cl)cc1 (some centres undefined)
    ·, -0.8
O=C(Nc1ccc(Cl)c(Cl)c1)N(Cc1ccccc1)Cc1ccccc1
    1, -5.8
O=C1CC(c2ccccc2Cl)Oc2ccccc21 (centres undefined)
    ·, -4.0
O=C(/C=C/c1cccs1)Nc1ccc(Nc2ccccc2)cc1
    0, -0.8
Cc1cc(N=Cc2ccc(N3CCOCC3)cc2)ccc1Br
    -2, 0.1
O=S(=O)(NCCc1ccccn1)c1cc(Cl)cc(Cl)c1O
    2, ·
Cc1nnc(NCCc2ccccc2)n(N)c1=O
    16, 0.1
CCCCCc1ccc(C(=O)CCN(C)C)cc1
    0, ·
CCS(=O)c1ccccc1C(=O)OCC(=O)NCc1ccc(Cl)cc1 (centres undefined)
    -13, ·
Cc1cccc(-c2nc(C#N)c(NCc3ccccc3)o2)c1
    -8, 0.8
Cc1c(N/C=C/C(=O)c2cccs2)c(=O)n(-c2ccccc2)n1C
    10, 3.8
COC(=O)c1cn(C)c2ccc(S(=O)(=O)N(C)C3CCCCC3)cc2c1=O
    -7, -0.2
COC(=O)Cn1c(CCS(=O)(=O)c2ccc(C)cc2)nc2ccccc21
    -3, ·
Cc1nnc(SCC(=O)Nc2ccccc2S(=O)(=O)N(C)C2CCCCC2)n1-c1ccccc1
    8, ·
CCN1CSC(=S)N(CC)C1
    ·, -0.8
CC(C)c1cccc(C(C)C)c1NC(=O)COC(=O)/C=C/c1ccco1
    15, 2.5
O=C(O)c1cc2ccccc2s1
    ·, 1.5
Cc1ccccc1NC(=O)Nc1c(C)n(-c2ccccc2)c(=O)n1C
    0, -0.1
CC(C)=C1C(=O)Nc2ccc(S(=O)(=O)N3CCc4ccccc43)cc21
    7, ·
COc1ccc(Cl)cc1N(CC(=O)NCc1ccccn1)S(=O)(=O)c1ccc(C)c([N+](=O)[O-])c1
    ·, -1.6
CCOC(=O)c1ccc2c(c1)c(C)c(C)n2C
    6, ·
COc1ccc(Nc2[nH]nc(NC(=O)CC3CC4CCC3C4)c2C#N)cc1 (centres undefined)
    -5, ·
CCCCC(C(=O)N1CCCCC1)N1C(=O)c2ccccc2C1=O (centres undefined)
    0, 0.6
Clc1ccc(CSCc2ccc(-c3csnn3)cc2)cc1
    ·, 1.3
O=C(CCCN1C(=O)/C(=C\c2cccs2)SC1=S)Nc1ccc(O)cc1
    9, 1.4
O=C(N1CCN2CCCC2C1)C(F)(F)C(F)(F)C(F)(F)C(F)(F)F (centres undefined)
    -3, -0.3
FC(F)(F)c1cccnc1-n1cncn1
    ·, -1.2
COC(=O)Cc1cc(=O)n2[nH]cnc2n1
    -17, ·
CCS(=O)(=O)c1ccc2oc(C)nc2c1
    -12, ·
CCCCn1c(COC)nc2ccccc21
    -5, -2.4
C/[N+]([O-])=C\C1C(=O)CC(C)(C)CC1=O
    ·, 1.0
CCN1C(=O)C(C)S/C1=N\S(=O)(=O)c1ccc(F)cc1 (centres undefined)
    -25, ·
O=C(Nc1nc2c(s1)COc1ccccc1-2)c1ccc2ncsc2c1
    12, ·
COc1ccccc1/C=N\NC(=O)c1ccccn1
    23, ·

The list goes on:
Second line of a record: Sa helicase inh, MgrA DNA FP
N#CC(c1ccc2c(c1)OCO2)N(Cc1ccccc1)C(=O)c1sc2ccccc2c1Cl (centres undefined)
    ·, 0.3
CCOC(=O)Nc1ccc2c(c1)N(C(=O)CCN1CCOCC1)c1ccccc1CC2
    17, ·
COCCn1c(SCC(=O)c2c[nH]c3ccccc23)nc2ccccc2c1=O
    8, ·
CCOC(=O)/C(C#N)=C\c1ccc2c(c1)OCO2
    4, ·
Cc1ccc(S(=O)(=O)NCc2nc3ccccc3[nH]2)cc1
    8, ·
COCCOC(=O)C1=C(C)NC2=C(C(=O)CC(C)(C)C2)C1c1cc2c(cc1Br)OCO2 (centres undefined)
    ·, 2.0
COc1cc2c(cc1OC)C1(NCC2)C(=O)Nc2ccccc21 (centres undefined)
    -4, ·
Fc1ccccc1Cn1cnc2ccccc21
    0, -2.8
CCN(CC)c1ncnc2c1cnn2-c1ccccc1
    ·, -4.0
Cc1csc(NC(=O)CSc2nnc(CCNC(=O)c3ccc(Cl)c(Cl)c3)n2C)n1
    7, 6.5
CC(C)N1CC(COc2ccccc2)OC1=O (centres undefined)
    11, -7.2
Brc1ccc(OCCn2cnc3ccccc32)cc1
    13, 1.4
CCCNC(=O)c1cc(S(=O)(=O)N2CCc3ccccc32)cn1C
    -3, 0.2
O=C(Cc1ccccc1)Nc1nnc(-c2ccco2)o1
    5, ·
CCOC(=O)N1CCC(NC(=O)/C=C/C(=O)O)CC1
    -13, ·
CSc1nc2n(n1)C(C(C)C)C(C(=O)Nc1ccc(Cl)cc1)=C(C)N2 (centres undefined)
    17, ·
Cc1cc(C)nc(SCC(=O)Nc2ccc(F)c(Cl)c2)n1
    ·, -1.6
CSc1nn(-c2ccccc2)c[n+]1-c1ccccc1
    ·, -3.2
CCC1(C)OC(=O)N2CCc3ccccc3C21C (centres undefined)
    -3, -1.2
COCC(=O)N1CCCc2ccccc21
    9, 1.2

Exported as labelled records: entries from further up
COCC(=O)N1CCCc2ccccc21
  Sa helicase inh = 9; MgrA DNA FP = 1.2

CCOC(=O)N1CCC(NC(=O)/C=C/C(=O)O)CC1
  Sa helicase inh = -13; MgrA DNA FP = ·

CCCNC(=O)c1cc(S(=O)(=O)N2CCc3ccccc32)cn1C
  Sa helicase inh = -3; MgrA DNA FP = 0.2

Cc1cc(C)nc(SCC(=O)Nc2ccc(F)c(Cl)c2)n1
  Sa helicase inh = ·; MgrA DNA FP = -1.6

Additional results follow:
Second line of a record: Sa helicase inh, MgrA DNA FP
CC(C)n1c2ccccc2c2nc3ccccc3nc21
    5, ·
Cc1cc2ccc(=O)oc2cc1OC[C@@H](O)C(C)(C)O
    7, -2.5
Cc1cc(C(C)(C)C)cc(C)c1CC1=NCCN1
    ·, -1.6&1.3
Cc1cccc(Nc2nc3ccccc3c3nncn23)c1
    -24, ·
COc1ccc(C2CC(=O)C3=C(C2)NC(=O)CC3c2ccccc2)cc1OC (centres undefined)
    5, ·
O=C(c1ccc(CN2CCOCC2)o1)C(F)(F)F
    18, 1.3
COc1ccc(-c2nnn(CN3CCCC3c3cccs3)n2)cc1OC (centres undefined)
    -3, ·
COc1ccc(OC)c(C2NC(=O)NC(C)=C2C(=O)OCCSc2ccccc2)c1Br (centres undefined)
    ·, -1.4
CC(=O)NCc1cn2ccsc2n1
    11, ·
Cc1cccc(-n2c(SCC(=O)Nc3ccccc3)nc3nc4c(cc3c2=O)COC(C)(C)C4)c1
    9, ·
